Screening data deposited in PubChem by National Center for Advancing Translational Sciences (NCATS).
miR-21 FLuc – raises the signal of a miR-21 reporter; HeLa miR-21 FLuc reporter, luciferase, 48 h; Potency, µM (titrated, usually from 38.3 µM), for inactives: at the highest dose reporter change, positive = more light; 340,000 tested, under 10 active; active = well fitted rising curve with a large enough effect; inconclusive = small, poorly fitted or top-dose-only effect; inactive = no such curve, though single readings can be large or run the other way;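 further: % of control where 0% means no effect; miR-21 action dims this reporter so a rising signal means less miR-21 action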
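HeLa cells endogenously expressing miR-21, stably carrying CMV-driven firefly luciferase with a downstream miR-21 binding site, 2000 cells/well. Titrations up to approximately 40 uM, 48 hours; luciferase luminescence read.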
Numbers without * were called inactive; ? = inconclusive. Not all compounds are listed; rates above refer to the full screens.

SMILES	miR-21 FLuc
Nc1c(C(=O)Nc2ccc(Br)cc2)sc2nc(-c3ccncc3)ccc12	-18%
COc1ccccc1NC(=O)CSC1=Nc2ccccc2C2=NC(CC(=O)NCc3ccccc3)C(=O)N12 (stereo unspecified)	6%
CCCCN(C)CCNC(=O)Cn1ncc2c([nH]c3ccccc32)c1=O	-10%
COc1ccc(-n2c(-c3ccco3)nc3c(cnn3-c3ccc(Cl)cc3)c2=O)cc1	28%
O=C(/C=C/c1cn(CC(O)CN2CCCCCC2)c2ccccc12)c1ccc(Br)cc1 (stereo unspecified)	-9%
O=S(=O)(c1ccc(Br)cc1)c1nnn2c1nc(N1CCOCC1)c1sccc12	-11%
Cc1cc(C)cc(N2C(=O)N(Cc3cc(=O)n4ccccc4n3)c3ccccc3S2(=O)=O)c1	10%
Cc1oc2ncn(CC(C)C)c(=O)c2c1C(=O)N1CCN(c2cccc(C(F)(F)F)c2)CC1	-5%
Cc1c(C(=O)Nc2ccc(F)c(Cl)c2)sc2nc3n(c(=O)c12)CCC3	8%
COc1ccc(C2=C(C)C(=NCc3ccc(OC(C)C)cc3)NS2(=O)=O)cc1	-9%
COc1cc(NC(=O)c2cnc3c(-c4ccc(F)cc4)c(C)nn3c2C)cc(OC)c1	8%
O=C(NC1CCCCCC1)c1ccc(CS(=O)c2cccc(Cl)c2)o1 (stereo unspecified)	0%
COc1ccccc1NCc1cccn1-c1nnc(N2CCOCC2)s1	-16%
CCOc1ccc(-n2nc(CO)c(C(=O)NCc3cccs3)n2)cc1	13%
Cc1ccc(C2c3[nH]c4ccccc4c3CCN2C(=O)c2ccccc2Br)cc1 (stereo unspecified)	28%
O=C(CS(=O)(=O)c1cccc2nsnc12)N1CCN(c2ccccc2)CC1	1%
COc1ccc(Cl)cc1Nc1cc(C)nc2nc(-c3ccccc3C)nn12	5%
COc1ccccc1CNC(=O)c1sc2nc3n(c(=O)c2c1C)CCC3	-2%
CCOc1ccc(C2c3c(oc4ccc(C)cc4c3=O)C(=O)N2CCCN(C)C)cc1OC (stereo unspecified)	-6%
COc1ccc(-c2cc(-c3ccccc3)c(C#N)c(SCC(O)CS(=O)(=O)Cc3ccc(Cl)cc3)n2)cc1 (stereo unspecified)	1%
Cn1c(=O)c2c(-c3ccc(Cl)cc3)n(CCc3ccccc3)cc2n(C)c1=O	?
Fc1ccc(-c2cn3cc(Cc4ccccc4Cl)sc3n2)cc1	-2%
O=C(CSc1cn(CC(=O)N2CCCCC2)c2ccccc12)Nc1ccccc1F	14%
COc1ccc(NC(=O)C2Cc3ccccc3N2C(=O)c2ccccc2)c(OC)c1 (stereo unspecified)	3%
COc1ccc(S(=O)(=O)NCCS(=O)(=O)N2CCN(c3ccccc3)CC2)cc1C	24%
CCN1CCN(c2ncnc3c2cnn3-c2cccc(C)c2)CC1	-55%
CCOc1ccc(C(=O)c2cn(CC(=O)Nc3ccc4c(c3)OCCO4)c3ccc(F)cc3c2=O)cc1	3%
Cc1ccc(N(C)C(=O)C2CCCN(c3ncnc4c3nc3n4CCCCC3)C2)cc1C (stereo unspecified)	-1%
CCOCC(=O)Nc1ccc(-c2cn3c(C)csc3n2)cc1	20%
COc1ccccc1NC(=O)c1cc2cc3ccc(OC)c(Cl)c3nc2s1	-2%
COc1ccccc1CNS(=O)(=O)c1c(C)nc2sc(C)cn2c1=O	-1%
COc1ccccc1NC(=O)C(=O)c1cc(C)n(-c2cc(C)cc(C)c2)c1C	4%
Cc1ccc(CNC(=O)c2nc(SCc3ccc(C)cc3)ncc2Cl)cc1	3%
CCN(CCCNC(=O)CN1N=C(c2ccc(C)cc2)CCC1=O)c1ccccc1	?
CCOc1ccc(C2C(=O)N(C3CCCCCC3)CC(=O)N2CCc2ccc(Cl)cc2)cc1OC (stereo unspecified)	25%
CC1CN(C(=O)Nc2ccc(C(=O)NCCc3ccccc3)cc2)c2ccccc2S1 (stereo unspecified)	-13%

Of the compounds above, these have a thiophene ring, fused or not.
SMILES	miR-21 FLuc
Nc1c(C(=O)Nc2ccc(Br)cc2)sc2nc(-c3ccncc3)ccc12	-18%
O=S(=O)(c1ccc(Br)cc1)c1nnn2c1nc(N1CCOCC1)c1sccc12	-11%
Cc1c(C(=O)Nc2ccc(F)c(Cl)c2)sc2nc3n(c(=O)c12)CCC3	8%
CCOc1ccc(-n2nc(CO)c(C(=O)NCc3cccs3)n2)cc1	13%
COc1ccccc1CNC(=O)c1sc2nc3n(c(=O)c2c1C)CCC3	-2%
COc1ccccc1NC(=O)c1cc2cc3ccc(OC)c(Cl)c3nc2s1	-2%

Continued:
SMILES	miR-21 FLuc
COc1ccc(-c2nc(CNS(=O)(=O)c3ccc(F)cc3)cs2)cc1	18%
CCCC12CN3CC(C)(CN(C1)C3c1ccc(CC)cc1)C2=O (stereo unspecified)	2%
COc1ccc(CCN2C(=O)c3[nH]nc(-c4ccccc4O)c3C2c2ccc(OC)cc2)cc1 (stereo unspecified)	?
Fc1ccc(-n2ncc3c(NCCCN4CCOCC4)ncnc32)cc1	-53%
COc1cccc(C(=O)Nc2ccccc2-c2nnc(-c3ccc(C(C)(C)C)cc3)o2)c1	-4%
CC(C)(C)OC(=O)N1CCC(c2c(C(=O)Nc3ccc4c(c3)OCCO4)cnn2-c2ccc(Cl)cc2)CC1	28%
COCCn1c(=NC(=O)c2ccc3c(c2)OCCO3)sc2cc(NC(C)=O)ccc21	-22%
CCn1c2ccccc2c2cc(NC(=O)COc3ccc(C)cc3C)ccc21	-10%
CN(C)c1ccc(NC(=O)CSc2nc(-c3ccco3)cc(C(F)(F)F)n2)cc1	1%
CC(=O)Nc1c(C(=O)Nc2cccc(C)c2)nnn1-c1ccc(C)cc1	-15%
Clc1ccc(OCc2nc(-c3ccc(-n4cccc4)cc3)no2)cc1	0%
COc1ccc(-c2cc(C(F)(F)F)nc(SCC(=O)NCCc3ccccc3)n2)cc1	-26%
CCCCCn1c(NCc2ccc(OC)cc2)nc2ccccc21	30%
Cc1ccc(-c2nc3c(c(SCC(=O)N(C)c4ccccc4)n2)Cc2c(CO)cnc(C)c2O3)cc1	-8%
C/C(CC(=O)Nc1ccccn1)=N\NC(=O)c1ccncc1	2%
CCc1ccc(CNC(=O)Cn2nc(C)c3c(C)n(-c4ccc(C)cc4)nc3c2=O)cc1	-2%
CCc1ccccc1-n1cnc2cc(C(=O)NC3CCCCCC3)ccc21	1%
C=Cc1ccc(CN2C(=O)c3ccccc3Sc3ccc(C(=O)OCc4ccco4)cc32)cc1	0%
COc1cc(OC)c(NC(=O)Nc2nnc(N(C)C3CCCCC3)s2)cc1Cl	4%
CCc1ccc(NC(=O)CC2C(=O)OCCN2CC)cc1 (stereo unspecified)	-6%
CC1CCCCN1S(=O)(=O)c1cc2c3c(c1)CC(=O)N3CCC2 (stereo unspecified)	-10%
Cc1cc(C)c(OCC(=O)N(Cc2ccco2)Cc2ccco2)c(C)c1	1%
CCCOc1ccc(C2C(=O)N(C3CCC(C)CC3)CC(=O)N2CCc2ccccc2)cc1OC (stereo unspecified)	-3%
COc1cccc(CNC(=O)Nc2cn(CC(C)C)c(=O)c3ccccc23)c1	0%
CCn1nc(-c2ccccc2)c(-c2ccccc2)c(C(=O)Nc2nc(C)c(C(=O)N(C)C)s2)c1=O	6%
O=C(COc1ccc(Cl)cc1)NCC(c1ccco1)S(=O)(=O)c1ccc(F)cc1 (stereo unspecified)	5%
Cc1cc(N2CCN(C)CC2)nc2ccc(NC(=O)Nc3ccccc3)cc12	-86%
Cc1ccc2c(=O)cc(C(=O)Nc3cccc(Cl)c3C)oc2c1C	-17%
COc1cc(NC(=O)c2cc(C)nc3c2c(C)nn3-c2ccccc2Cl)cc(OC)c1	17%
COc1cc(NC(=O)CC2C(=O)N(c3ccccc3)C(=O)N2Cc2ccc(F)cc2)cc(OC)c1 (stereo unspecified)	12%
CCc1ccccc1NC(=O)CN1C(=O)c2cccnc2Oc2ccc(Cl)cc21	-9%
COc1cccc(NC(=O)CCNS(=O)(=O)c2ccc3c(c2)CCCC(=O)N3)c1	0%
O=C(NCC(c1ccco1)S(=O)(=O)c1cccs1)c1ccc(C(F)(F)F)cc1 (stereo unspecified)	-2%
Cn1cnc(S(=O)(=O)N2CCC(C(=O)Nc3ccc(C#N)cc3)CC2)c1	0%
COc1ccc(-c2noc(-c3ccc(N4CCN(c5ccccc5)CC4)c([N+](=O)[O-])c3)n2)cc1OC	5%
Cc1cccc2c(=O)cc(CSc3ccccc3NC(=O)c3cccc(Cl)c3)[nH]c12	0%

Part of the list above in order of SMILES length, smallest number first.
SMILES	miR-21 FLuc
COc1ccccc1NCc1cccn1-c1nnc(N2CCOCC2)s1	-16%
Cc1cc(N2CCN(C)CC2)nc2ccc(NC(=O)Nc3ccccc3)cc12	-86%
COc1ccc(-c2cc(C(F)(F)F)nc(SCC(=O)NCCc3ccccc3)n2)cc1	-26%
COc1cc(NC(=O)c2cc(C)nc3c2c(C)nn3-c2ccccc2Cl)cc(OC)c1	17%
CCOc1ccc(C2c3c(oc4ccc(C)cc4c3=O)C(=O)N2CCCN(C)C)cc1OC (stereo unspecified)	-6%
CCc1ccc(CNC(=O)Cn2nc(C)c3c(C)n(-c4ccc(C)cc4)nc3c2=O)cc1	-2%

(cont.)
SMILES	miR-21 FLuc
CCOc1ccc(-c2nnc(SCC(=O)Nc3ccc(C)cc3Cl)o2)cc1	-12%
N#Cc1ccc(CN2C(=O)c3ccccc3Sc3ccc(C(=O)OCc4ccco4)cc32)cc1	-1%
Cc1ccc2ncc3c(-c4ccc(F)cc4)nn(-c4cccc(F)c4)c3c2c1	0%
COc1ccc(-c2noc(-c3ccc(NC4CCCC4)c([N+](=O)[O-])c3)n2)cc1OC	-1%
CCOC(=O)c1ccc(NC(=O)C2=C(C)Nc3nc(SCc4ccc(Cl)cc4)nn3C2c2ccc(C)cc2)cc1 (stereo unspecified)	3%
Cn1nc(C(=O)N2CCN(c3ccccc3)CC2)c2c1-c1ccccc1SC2	-13%
COc1cccc(CNC(=O)c2c3c(nc4ccccc24)C(=O)N(C2CCCCC2)C3)c1	18%
Clc1ccc(-c2noc3ncnc(NCCCN4CCN(c5ccccc5)CC4)c23)cc1	7%
COc1cc(C2CC(=O)Nc3cc4c(cc32)OCO4)cc(OC)c1O (stereo unspecified)	-11%
COc1ccc(C)cc1NC(=O)Cn1c(=O)n(Cc2nc(C)no2)c(=O)c2ccccc21	0%
Cc1ccccc1CSCCNC(=O)CN(c1ccccc1)S(=O)(=O)N(C)C	8%
Cn1ncc2c(NCc3ccccc3Cl)nc(NCCO)nc21	-14%

Sorted by value in miR-21 FLuc (low to high): 3 from the list above.
SMILES	miR-21 FLuc
Cn1nc(C(=O)N2CCN(c3ccccc3)CC2)c2c1-c1ccccc1SC2	-13%
CCOc1ccc(-c2nnc(SCC(=O)Nc3ccc(C)cc3Cl)o2)cc1	-12%
N#Cc1ccc(CN2C(=O)c3ccccc3Sc3ccc(C(=O)OCc4ccco4)cc32)cc1	-1%

Additional results:
SMILES	miR-21 FLuc
O=C(CC1N=C2c3ccccc3N=C(SCc3ccccc3Cl)N2C1=O)NCc1cccs1 (stereo unspecified)	-1%
O=C(Nc1nc(-c2ccc(Br)cc2)ns1)c1ccc(F)cc1	0%
CCOC(=O)c1ccc(Nc2nc3ccccc3nc2NS(=O)(=O)c2ccc(Cl)cc2)cc1	14%
Cc1cc(Nc2cccc(C(F)(F)F)c2)nc2ccc(NC(=O)c3cccc(Cl)c3)cc12	25%
CCOC(=O)c1ccc(-n2c(CCC(=O)O)ccc2-c2ccc(Br)cc2)cc1	-5%
CCc1ccccc1NC(=O)C(C)n1c(=O)cc(C)c2c(C)nn(-c3ccccc3)c21 (stereo unspecified)	10%
CCOc1ccc(CCNC(=O)CCCn2nc(C)c3sc4ccccc4c3c2=O)cc1OCC	4%
CCOc1ccc(NC(=O)c2cnn3c2NC(c2ccccc2)=CC3c2cccc(OC)c2OC)cc1 (stereo unspecified)	15%
CCCCN1CCc2nc(Nc3ccc(OC)cc3OC)ncc2C1	-5%
Cc1ccc(CNC(=O)CCc2c(C)c3ccc(O)c(C)c3oc2=O)cc1	-7%
CC(C)C(=O)N1c2nc(C(C)C)nn2C2(CCCCC2)[C@@H]2CCCC[C@@H]21	-3%
COc1ccc(NC(=O)c2cc3c(=O)n(Cc4ccco4)ccc3nc2C)cc1	13%
Cc1c(NC(=O)c2ccc(Cl)cc2)cc(C(C)C)c(O)c1S(=O)(=O)c1ccc(Cl)cc1	-9%
COc1cc(Cl)c(C)cc1Nc1nc2ccccc2c2nnc(C)n12	-2%
COc1ccc(C(=O)CN2CCN(S(=O)(=O)c3ccc(F)cc3)CC2)cc1	1%
COCCn1c(CNC(=O)c2cc([N+](=O)[O-])ccc2Cl)nc2cccnc21	3%
CC1Cc2cc(S(=O)(=O)N(C)c3ccc(Br)cc3)ccc2N1C(=O)C1CC1 (stereo unspecified)	?
Cc1cccc(NC(=O)CSc2nc(-c3ccccc3)cn2-c2ccccc2)c1C	29%
O=C(CSc1nc2c([nH]c3ccccc32)c(=O)n1-c1ccccc1)N1CCCCC1	-2%
CCS(=O)(=O)N1CCC2(CC1)OC(=O)C(C)=C2C(=O)NCc1ccccc1C	-5%
COc1ccc(-c2nc(Cn3c(SCc4cccc(Cl)c4)nc4ccncc43)c(C)o2)cc1	21%
Cc1[nH]c2ccccc2c1C1(O)C(=O)N(Cc2ccccc2Cl)c2ccccc21 (stereo unspecified)	24%
CCCn1c2ccccc2c2cnn(CC(=O)N(Cc3ccccc3)C(C)C)c(=O)c21	19%
Cc1nn2c(=O)cc(COC(=O)c3ccc(NC(=O)c4cccc(Br)c4)cc3)nc2s1	-8%
